Bioassay records (PubChem BioAssay)
VDR inh – vitamin D3 receptor (human) inhibition; Potency, µM, inactives show max response, negative = inhibition, most hits filed as inhibitors; VDR-SRC2-3 peptide fluorescence polarization, 2 h; P11473; hit rate 0.93% among 400,000; active = well fitted inhibition curve with a large enough effect; inconclusive = small, poorly fitted or top-dose-only effect, or another doubt; inactive = no such curve, though single readings can be large or run the other way; also: series mostly up to about 120 µM
Target sequence (P11473 whole entry, looked up): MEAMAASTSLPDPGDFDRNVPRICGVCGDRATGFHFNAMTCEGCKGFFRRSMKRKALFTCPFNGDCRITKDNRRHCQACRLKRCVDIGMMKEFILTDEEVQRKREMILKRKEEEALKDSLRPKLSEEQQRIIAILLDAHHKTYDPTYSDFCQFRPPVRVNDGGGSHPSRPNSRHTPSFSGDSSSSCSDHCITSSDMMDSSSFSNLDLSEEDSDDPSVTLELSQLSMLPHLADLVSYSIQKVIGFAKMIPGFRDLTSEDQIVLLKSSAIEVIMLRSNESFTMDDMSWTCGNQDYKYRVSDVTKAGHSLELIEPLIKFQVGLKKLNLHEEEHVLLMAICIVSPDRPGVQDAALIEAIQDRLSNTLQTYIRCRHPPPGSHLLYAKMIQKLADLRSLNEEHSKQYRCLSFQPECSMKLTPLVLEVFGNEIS
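Compounds are added to VDR with labelled SRC2-3 coactivator peptide and held 2 h at room temperature. Inhibition of the VDR–peptide interaction is then read as a change in fluorescence polarization.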
An asterisk follows results filed as active; u = inconclusive; & = joins results of further samples. % is scaled to controls: 0 for no effect and ±100 for the full control effect; potency is read from the fitted curve at half-maximal effect.

Sample of the layout:
SMILES	VDR inh
CCN1/C(=C/C(C)=O)Sc2ccc(OC)cc21	u
C[C@@H](C(=O)N1CCN(C(=O)OC(C)(C)C)CC1)n1cc(CCC(=O)O)nn1	15%
COCCNC(=O)c1ccccc1NC(=O)Cc1ccccc1	22%

This part in full, from the start:
SMILES	VDR inh
CCN1/C(=C/C(C)=O)Sc2ccc(OC)cc21	u
C[C@@H](C(=O)N1CCN(C(=O)OC(C)(C)C)CC1)n1cc(CCC(=O)O)nn1	15%
COCCNC(=O)c1ccccc1NC(=O)Cc1ccccc1	22%
Cc1ccc(C)c(OCCOCCN2CCOCC2)c1	-4%
C=CCn1c(SCC(=O)NCc2ccccc2)nnc1C1CCCCC1	-1%
COc1ccc(-n2ncc(C(=O)N3CCN(c4ccc(F)cc4)CC3)c2C)cc1	5%
COCc1cc(C)nc2c1C(=O)NC(c1ccc(NC(C)=O)cc1)N2Cc1ccccc1 (stereo not drawn)	-8%
CN(CCOC(=O)c1ccco1)Cc1ccccc1	10%
O=C(CS(=O)(=O)c1ccccc1)NCc1ccc(Cl)cc1	-4%
O=S(=O)(NC(=NC1CCCCC1)c1ccccc1F)c1ccccc1	10%
CN1CCN(C(=O)c2cnn3c(C(F)F)cc(C4CC4)nc23)CC1	-4%
NC(=O)c1c(NC(=O)Cc2cccs2)sc2c1CCC2	8%

Continued.
SMILES	VDR inh
CCOC(=O)Cn1c(=O)oc2cc(S(=O)(=O)Nc3cc(OC)cc(OC)c3)ccc21	-1%
Cn1c(CSCc2ccccc2Cl)nnc1SCC(=O)Nc1nccs1	7%
N#C/C(=C\Nc1ccc(F)c(Cl)c1)C(=O)C1CC1	-28%
CC1(C)CC(N(Cc2ccco2)C(=O)Cc2ccccc2)CCO1 (stereo not drawn)	12%
Cc1ccc(C)c(NS(=O)(=O)c2ccc3oc(=O)c4ncn(C)c4c3c2)c1	8%
COC(=O)C1=C(C)NC2=C(C(=O)C(C(=O)OC)C(c3ccc(OC)cc3)C2)C1c1ccccn1 (stereo not drawn)	-10%
CCn1cc(CNC(=O)CCc2ccc(OC)cc2)cn1	9%
CCOC(=O)C1CCN(C(=O)CCS(=O)(=O)c2ccc3c(c2)CCN3C(C)=O)CC1	0%
COc1ccc(NS(=O)(=O)c2ccc3oc(SC)nc3c2)cc1	0%
O=C(Nc1ccnc(-c2ccncc2)n1)c1ccccc1Cl	5%
CCCCc1c(C)c2ccc(OC)c(/C(C)=N\O)c2oc1=O	-6%
Cc1cnc(C(=O)OCc2nc3ccsc3c(=O)[nH]2)cn1	-8%

More results.
SMILES	VDR inh
Cc1ccc(CNC(=O)c2ccc(N(C)C)cc2)cc1	-22%
CCOC(=O)C1(CCOC)CCN(C(=O)Cc2ccc3ccccc3c2)CC1	-9%
COc1ccc(NC(=O)COC(=O)CNS(=O)(=O)c2ccc(C)cc2)c(OC)c1	2%
CN(c1ccccc1)S(=O)(=O)c1cccc(NC(=O)C2CCCO2)c1 (stereo not drawn)	-4%
COc1ccc(NC(=O)CCn2nc(C)cc2C)cc1	14%
CC(Oc1cc2oc(=O)c3c(c2cc1Cl)CCC3)C(=O)NCCN1CCOCC1 (stereo not drawn)	-10%
Cc1ccc(Cl)cc1NS(=O)(=O)c1c(C)[nH]c(=O)[nH]c1=O	1%
COc1ccc(CNCC(O)(c2ccc(Cl)cc2)c2ccc(Cl)cc2)cc1OC	9%
O=S(=O)(c1ccc(Br)cc1)c1nnn2c1nc(NCCc1ccccc1)c1sccc12	-2%
CC(=O)Nc1ccc(C(=O)NNC(=O)C2CC2)cc1	-11%
CN(C)S(=O)(=O)c1ccc(Cl)c(C(=O)NCCNC(=O)c2cc(S(=O)(=O)N(C)C)ccc2Cl)c1	-18%
CCOC(=O)c1cnc(-c2ccccc2)nc1Oc1ccc(C)cc1	2%

The list goes on:
SMILES	VDR inh
O=C(Nc1ccc(Cl)cc1)P(=O)(O)c1ccccc1	-7%
CCOC(=O)N1CCN(C(=O)COc2cc(=O)n(C)c3ccccc23)CC1	-4%
CCCOc1cccc(C(=O)Nc2cccc(-c3nc4ncccc4o3)c2C)c1	4%
Cc1sc2ncn(-c3ccccc3)c(=O)c2c1C	-5%
COc1ccccc1CN1CC(C(=O)NCCc2cn[nH]c2)CCC1=O (stereo not drawn)	-7%
Cc1ccc(S(=O)(=O)NNC(=O)c2cccs2)c(C)c1	3%
CCc1nnc(NS(=O)(=O)c2ccc(NC(=O)COc3ccc4ccccc4c3)cc2)s1	11%
O=C1CC(c2cccc(Cl)c2)CC(O)=C1C=NC1CCCC1 (stereo not drawn)	-15%
COc1ccc2[nH]c(=O)c(CN(C(=O)c3ccncc3)C(C)C)cc2c1	-8%
Cc1[nH]c2ccccc2c1N=Nc1ccccc1F	6%
COc1cccc(Nc2nc(N)nc(-c3oc4ccccc4c3C)n2)c1	8%
O=S(=O)(Nc1ccccc1)c1cccc2nsnc12	10%

Next records
SMILES	VDR inh
CC(=O)Nc1nonc1-c1nc2ccccc2n1N(C(C)=O)C(C)=O	-11%
CCNC(=S)N1N=C2c3ccccc3CCC2C1c1ccc(F)cc1 (stereo not drawn)	-20%
CC(OC(=O)c1cc(Cl)ccc1[N+](=O)[O-])C(=O)NC(C)c1ccc(F)cc1 (stereo not drawn)	-5%
Cc1ccc(OCC(O)CN2CCN(c3ccccc3)CC2)cc1 (stereo not drawn)	-4%
O/N=C/c1cccnc1Sc1ccccc1	3%
CCOc1ccc(CN(C(=O)c2ccco2)C2CCS(=O)(=O)C2)cc1 (stereo not drawn)	7%
COc1cc([N+](=O)[O-])ccc1NC(=O)CN1CCOCC1	4%
COC(C(=O)Nc1ccnn1C1CCN(Cc2ccc(Cl)s2)CC1)c1ccccc1 (stereo not drawn)	3%
Cc1ccc([N+](=O)[O-])c(-c2n[nH]c(=S)n2-c2cccc(Cl)c2)c1	-14%
Cc1c(C#N)c(O)[nH]c(=O)c1N=Nc1ccc(Cl)c(C(=O)O)c1	17%
CCOC(=O)c1cnc(SCC(=O)N2CCN(c3ccccc3)CC2)nc1N	-5%
CC(=O)C1=C(C)NC(SCC(=O)c2ccc(Cl)cc2)=C(C#N)C1c1ccco1 (stereo not drawn)	19%

Carrying on.
SMILES	VDR inh
Cc1cc(O)cc(O)c1C(=O)OC1(C)C(=O)C=C2C=C(/C=C/C(=O)O)OC=C2C1=O (stereo not drawn)	u
Cc1cc2ccccc2n1CCNC(=O)c1ccccc1	20%
COc1ccc(-c2c(-c3cc(OC)cc(OC)c3)n(C)c3ccc(-c4ccc5cc[nH]c5c4)cc23)cc1	-4%
COc1ccccc1CC(=O)NC1CC(C)(C)NC(C)(C)C1	-6%
N#C/C(=C\c1ccccc1F)c1nc2ccccc2c(=O)[nH]1	-12%
Cc1ccc(C(=O)NNC(=O)Cc2ccccc2)cc1	1%
FC(F)(F)c1cc(-c2ccccc2)nc(NCc2cccs2)n1	-6%
COc1ccc2[nH]c3c(c2c1)CCN1C(=O)N([C@@H](C)C(=O)NCCc2ccc(F)cc2)C(=O)[C@]31C	-21%
CCc1ccccc1NC(=O)c1nnn(CC(=O)Nc2ccccc2C)c1N	-10%
Cc1c(NC(=O)COC(=O)/C=C/c2cccc(Cl)c2)c(=O)n(-c2ccccc2)n1C	-11%
COc1ccc(/C=C\c2onc(C)c2S(=O)(=O)N2CCC(C(=O)NCCC(C)C)CC2)cc1	1%
Cc1nn(C(=O)CN2C(=O)c3ccccc3C2=O)c(C)c1Br	12%

Later entries.
| Structure | VDR inh |
| --- | --- |
| CC(=O)Nc1ccc(S(=O)(=O)NC(C)CCc2ccccc2)cc1 (stereo not drawn) | -11% |
| N#Cc1ccsc1NC(=O)COC(=O)CCCSc1nc2ccccc2s1 | 28% |
| CC(=O)Nc1ccc(-c2csc(NC(=O)C3CSC4(C)CCC(=O)N34)n2)cc1 (stereo not drawn) | -24% |
| C=CCOc1ccccc1CNc1ccc2c(c1)OCCO2 | -4% |
| CCCN1C(=O)COc2ccc(C(=O)c3ccccc3C(=O)O)cc21 | 3% |
| Cc1ccc(-c2cc(C(F)F)n3ncc(C(=O)Nc4c(C)nn(Cc5c(Cl)cccc5Cl)c4C)c3n2)cc1 | 13% |
| COCCC(=O)N1CCCC(C(=O)c2ccc(C(F)(F)F)cc2)C1 (stereo not drawn) | -10% |
| COc1ccc(OC)c(NC(=O)CCC(=O)Nc2nnc(C(F)(F)F)s2)c1 | 1% |
| O=C1CN(C(=O)CSc2nc(-c3ccccc3)cs2)c2ccccc2N1 | 0% |
| CC1CCCC(NC(=O)COC(=O)COc2ccc(Cl)cc2)C1C (stereo not drawn) | 16% |

(list continues)
| Structure | VDR inh |
| --- | --- |
| CC(C)CCNC(=O)c1cccc(-n2cnc3cccnc32)c1 | 4% |
| Cc1ccc(S(=O)(=O)/C(C#N)=C/c2c(N3CCOCC3)nc3ccccn3c2=O)cc1 | -21% |
| Cc1ccc(C)c(N2C(=O)CC(Cc3ccccc3)C2=O)c1 (stereo not drawn) | 12% |
| Cc1cc(C)c[n+](-c2[nH]c(=O)sc2/C=N/N=C(\[O-])c2cccnc2)c1 | -9% |
| COc1ccccc1C(=O)OCC(=O)NC(=O)NC1CCCC1 | -14% |
| CC1CCC(Nc2nc3c(-c4ccc(Cl)cc4)nnn3c3ccccc23)CC1 (stereo not drawn) | -8% |
| CC(=O)NCCC(=O)Nc1nc(-c2ccc3ccccc3c2)cs1 | -23% |
| COc1cccc(OC)c1C(=O)NC(=S)Nc1ccc2oc(=O)ccc2c1 | -12% |
| Cc1ccc(S(=O)(=O)NCC(=O)OCC(=O)c2cccs2)cc1 | -4% |
| CN(C)c1ccncc1C(=O)Nc1ccc(F)cc1F | -4% |

Next part
| Structure | VDR inh |
| --- | --- |
| CC(NC(=O)COc1ccc(Br)cc1)C(=O)O (stereo not drawn) | 7% |
| COc1ccccc1C(=O)Nc1ccccc1C(=O)OCc1cc(=O)n2c(C)csc2n1 | 4% |
| CCN1C(=NCCCOC(C)C)N[C@@H](c2ccccc2)[C@H](C(=O)OC)[C@H]1C | -2% |
| COc1ccccc1Oc1ccc(NC(=O)c2ccccc2C)cc1 | -11% |
| CCn1c2ccccc2c2cc(CNCc3ccc(OC)cc3OC)ccc21 | -12% |
| O=c1[nH]c(Nc2ccc3c(c2)OCCO3)nnc1Cc1ccc(Cl)cc1 | 15% |
| COc1ccc([N+](=O)[O-])cc1C1NN=C(c2cccc3ccccc23)S1 (stereo not drawn) | -5% |
| Cc1ccc(-n2ncc(C(=O)O)c2C2CCN(C(=O)OC(C)(C)C)CC2)cc1 | -3% |
| CCC(C)NC(=O)c1nn(C)c(=O)c2ccccc12 (stereo not drawn) | -8% |
| CNC(=O)C1CCC(Cn2c(=O)c3sccc3n(CC(=O)NCc3ccc(C)cc3)c2=O)CC1 (stereo not drawn) | 9% |

Remaining list, next part
| Structure | VDR inh |
| --- | --- |
| COc1ccccc1OCCCn1c(C)c(C#N)c2ccccc21 | 1% |
| CCOc1cc(CNCC(O)c2ccccc2)cc(Cl)c1OC (stereo not drawn) | 16% |
| CCN1CCN(CCCNC(=O)c2cn(CCOC)c(=O)c3c2c2ccccc2n3C)CC1 | 10% |
| CCN(CC)CCN1C(=O)C(O)=C(C(=O)c2cccs2)C1c1ccc(C)o1 (stereo not drawn) | 1% |
| Cc1ccccc1NC(=O)c1cccc(NC(=O)c2ccccc2C(=O)O)c1 | 6% |
| CC(C)CCn1cnc2c1c(=O)[nH]c(=O)n2Cc1ccccc1 | -2% |
| CC(=O)c1ccc(NC(=O)CCNS(=O)(=O)c2cc(Br)cnc2N)cc1 | -15% |
| Cc1cc(N2CCN(C)CC2)ccc1NC(=O)c1cccc(S(=O)(=O)N2CCc3ccccc3C2)c1 | -6% |
| NC1CCN(O)C1=O (stereo not drawn) | 1% |
| COc1ccc(C(=O)CC2(O)C(=O)N(Cc3ccccc3Cl)c3ccccc32)cc1 (stereo not drawn) | -3% |

Next records.
| Structure | VDR inh |
| --- | --- |
| CCN(CC)CCN(C(=O)c1ccc2ccccc2c1)c1nc2ccc(OC)cc2s1 | -23% |
| CC(C)OC(=O)Cn1c(=O)sc2ccccc21 | 1% |
| O=C(CNCc1ccccc1Cl)NCc1ccco1 | 11% |
| CC(=O)OCC(COC(C)=O)OC(C)=O | -9%&16%&-3% |
| O=C(O)CCC(=O)NNC(=O)c1ccc(-c2ccccc2)cc1 | 12% |
| O=C(CCC(=O)Nc1ccccc1)NNC(=O)C(c1ccccc1)c1ccccc1 | -20% |
| CCOc1ccc(CCNC(=O)CCn2c(=O)c3cccn3c3ccc(F)cc32)cc1 | 0% |
| O=C(NCCc1ccccc1)c1ccc2c(c1)N(Cc1ccc(Cl)cc1)C(=O)CS2 | -18% |
| CC(=O)c1ccc(OCCCC(=O)Nc2cccc(S(=O)(=O)N3CCCCCC3)c2)cc1 | -11% |
| Cc1cccc(NC(=O)N2CCN(C)c3ncccc32)c1C | -2% |

Not a retest: 2 of the compounds above.
| Structure | VDR inh |
| --- | --- |
| CC(=O)OCC(COC(C)=O)OC(C)=O | -9%&16%&-3% |
| O=C(O)CCC(=O)NNC(=O)c1ccc(-c2ccccc2)cc1 | 12% |

(listing goes on)
| Structure | VDR inh |
| --- | --- |
| O=C(CN1C(=O)CC(c2ccco2)Sc2ccccc21)Nc1ccc(C(F)(F)F)cc1 (stereo not drawn) | -20% |
| CCCCc1ccc(NC(=S)N2CCN(C(=O)OCC)CC2)cc1 | 13% |
| Cc1ccc(Cn2nnc3c(=O)[nH]c(C4CCN(S(=O)(=O)c5ccc(C)cc5)CC4)nc32)cc1 | 9% |
| COc1ccc(NS(=O)(=O)c2ccc(C(=O)OC(C)C(=O)N3CCOCC3)cc2)cc1 (stereo not drawn) | -2% |

Pulled by compound from the list above (4):
| Structure | VDR inh |
| --- | --- |
| O=C(CN1C(=O)CC(c2ccco2)Sc2ccccc21)Nc1ccc(C(F)(F)F)cc1 (stereo not drawn) | -20% |
| CCCCc1ccc(NC(=S)N2CCN(C(=O)OCC)CC2)cc1 | 13% |
| Cc1ccc(Cn2nnc3c(=O)[nH]c(C4CCN(S(=O)(=O)c5ccc(C)cc5)CC4)nc32)cc1 | 9% |
| COc1ccc(NS(=O)(=O)c2ccc(C(=O)OC(C)C(=O)N3CCOCC3)cc2)cc1 (stereo not drawn) | -2% |

These rows are one share of the data. The share of hits here may be higher or lower than overall.
